# Compound activity as filed in PubChem.
# Menin-MLL FL inh = qHTS Assay for Inhibitors Targeting the Menin-MLL Interaction in MLL Related Leukemias: Competition With Fluorescein Labeled MLL-derived Peptide; Fluorescence polarization, fluorescein-MLL peptide displacement from menin; AID 1766, 2009; 290,000 tested, under 10 active; FP activity change, % at 61.4 µM; inconclusive = falling polarisation curve, or a change in total fluorescence; inactive = total fluorescence flat and polarisation flat or rising; no compound was filed as active; the % refers to the polarisation; negative = inhibition;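 note: % of control where 0% means no effect; inhibitors lower the polarisation; unlabelled MLL peptide was the positive control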
# gsp antagonist = qHTS for Antagonists of gsp, the Etiologic Mutation Responsible for Fibrous Dysplasia/McCune-Albright Syndrome: qHTS; gsp-mutant cells, cAMP HTRF, 30 min; control for the full effect not named in the record; Potency, µM (highest dose often 76.9 µM), for the others: top-dose activity change, negative = inhibition, usual class: inhibitors; 0.4% of 340,000 active; active = falling curve of any shape with a large fitted effect; inconclusive = falling curve, mostly with a smaller effect; inactive = flat or rising curve; cell line not stated here;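 note: intracellular cAMP measured with PDE inhibitor Ro 20-1724 present during compound exposure; potency is the fitted concentration of half-maximal effect; % is set by controls: 0 for no effect and ±100 for the full control effect; nearly all actives have a fitted effect of over 65% in size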
#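 Cells, 2000/well, grown 16–24 h in DMEM 10% FBS with 0.5 mg/ml G418, then compounds plus […] (300 uM addition stock), 30 min at 37C. cAMP read by HTRF (cAMP-d2 and anti-cAMP antibody-K in lysis buffer) after 30 min RT.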
# gsp agonist = qHTS for Agonist of gsp, the Etiologic Mutation Responsible for Fibrous Dysplasia/McCune-Albright Syndrome: qHTS; gsp mutant cells, cAMP HTRF, 30 min; control for the full effect not named in the record; Potency, µM (series often up to 76.9 µM), for inactives: at the top dose activation (cAMP increase), most hits filed as activators; 0.13% of 340,000 active; active = well fitted activation curve with a large enough effect; inconclusive = small, poorly fitted or top-dose-only effect, or another doubt; inactive = no such curve, though single readings can be large or run the other way; cell line not stated here;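 note: phosphodiesterase inhibitor Ro 20-1724 added with compounds to block cAMP breakdown; potency is the fitted concentration of half-maximal effect; nearly all actives have a fitted effect of over 60% in size; about a fifth of the inactives were tested at one dose only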
#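 Cells stably selected in G418 were plated at 2000/well, grown 16-24 hr, then given compounds in DMSO with the PDE inhibitor […] (300 uM solution added) for 30 min at 37C; cAMP was read by HTRF.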
# TRPV1 potentiator = HTS Assay for Compounds that Act as Potentiators of the Vanilloid Receptor 1; Transient receptor potential cation channel subfamily V member 1 (Homo sapiens), Q8NER1; TRPV1-expressing cells, Fluo-8 calcium influx, capsaicin EC20 potentiation; host cell line not named in the record; control for the full effect not named in the record; potentiation, % at 8.33 µM; 0.02% of 320,000 active; AID 540277, 2011; active means potentiation above 80%; inconclusive means 30% to 80%; inactive means below 30%; note: 0% is about no effect
#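 TRPV1-expressing cells were cultured overnight at 35.5C and loaded with Fluo-8 calcium dye for 40 to 90 min at room temperature. After a 10 s baseline, compound was added and calcium influx was read kinetically for 3 min (ex 480/em 520 nm).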
# Sfp inh = qHTS Assay for Inhibitors of Bacillus subtilis Sfp phosphopantetheinyl transferase (PPTase). Potency, µM, without a hit: max response, negative = inhibition, actives largely listed as inhibitors. 3.5% of 310,000 active. Biochemical Sfp PPTase activity, qHTS; active = well fitted inhibition curve with a large enough effect; inconclusive = small, poorly fitted or top-dose-only effect, or another doubt; inactive = no such curve, though single readings can be large or run the other way;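 note: the enzyme is Sfp with the accession as filed and its product quenches rhodamine fluorescence; potency is the fitted concentration of half-maximal effect; 0% = enzyme reaction without inhibitor and -100% = no enzyme wells; top concentration of the series not given in the record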
#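 Buffer: 50 mM Hepes-Na pH 7.6, 10 mM MgCl2, 0.01% Nonidet P-40, 0.01% BSA. Enzyme 15 nM, pre-exposed to compound 15 min; substrates then added and fluorescence change tracked over 30 min.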
# ClpP mod = qHTS Assay for Activators of ClpP; purified B. subtilis ClpP, FRET peptide cleavage, 20 min; ATP-dependent Clp protease proteolytic subunit (Bacillus subtilis (strain 168)), P80244; Potency, µM (top dose mostly 57.5 µM), for inactives: at the highest dose activity change, negative = active; 1.9% of 340,000 active; active = well fitted falling curve with a large enough effect; inconclusive = small, poorly fitted or top-dose-only effect; inactive = no such curve, though single readings can be large or run the other way; note: potency is the fitted concentration of half-maximal effect; the source files actives as falling curves though it sought activators and does not explain the sign; nearly all actives have a fitted effect of over 65% in size; many hits overshoot -100%
# Target sequence (P80244 whole entry, looked up): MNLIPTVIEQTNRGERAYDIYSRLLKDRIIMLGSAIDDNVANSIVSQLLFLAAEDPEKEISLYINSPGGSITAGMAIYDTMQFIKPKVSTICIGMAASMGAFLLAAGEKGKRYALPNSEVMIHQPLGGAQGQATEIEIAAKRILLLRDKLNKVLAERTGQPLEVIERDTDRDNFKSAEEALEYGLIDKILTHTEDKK
#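 Purified B. subtilis ClpP, 10 microg/mL final in Tris/HCl pH8 with KCl, BSA, glycerol and Tween-20, cleaved an Abz/nitrotyrosine-quenched decapeptide. Fluorescence (ex 320, em 430) was read at 0 and 20 min at room temperature. Delta was normalized to 5.8 microM ADEP and DMSO/no-enzyme controls.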
# TRPML1 blocker = qHTS for Inhibitors of the Human Mucolipin Transient Receptor Potential 1 (TRPML1); Mucolipin-1 (Homo sapiens), Q9GZU1; AID 624415, 2012; 0.02% of 390,000 active; activity change, negative = inhibition, % (no concentration beside the values); TRPML1-inducible cells, Ca2+ dye fluorescence, FDSS; active compounds read low; inhibition of EC80 agonist-evoked calcium signal; in the data active means activity change below about -50%; inconclusive means about -30% to -50%; inactive means above about -30%;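 note: stimulus is agonist 54-4 at its EC80 concentration; % is set by controls: 0 for no effect and ±100 for the full control effect; compound concentration not given in the record; the text of the record puts the active cut at -80%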
# Target sequence (Q9GZU1 whole entry, looked up): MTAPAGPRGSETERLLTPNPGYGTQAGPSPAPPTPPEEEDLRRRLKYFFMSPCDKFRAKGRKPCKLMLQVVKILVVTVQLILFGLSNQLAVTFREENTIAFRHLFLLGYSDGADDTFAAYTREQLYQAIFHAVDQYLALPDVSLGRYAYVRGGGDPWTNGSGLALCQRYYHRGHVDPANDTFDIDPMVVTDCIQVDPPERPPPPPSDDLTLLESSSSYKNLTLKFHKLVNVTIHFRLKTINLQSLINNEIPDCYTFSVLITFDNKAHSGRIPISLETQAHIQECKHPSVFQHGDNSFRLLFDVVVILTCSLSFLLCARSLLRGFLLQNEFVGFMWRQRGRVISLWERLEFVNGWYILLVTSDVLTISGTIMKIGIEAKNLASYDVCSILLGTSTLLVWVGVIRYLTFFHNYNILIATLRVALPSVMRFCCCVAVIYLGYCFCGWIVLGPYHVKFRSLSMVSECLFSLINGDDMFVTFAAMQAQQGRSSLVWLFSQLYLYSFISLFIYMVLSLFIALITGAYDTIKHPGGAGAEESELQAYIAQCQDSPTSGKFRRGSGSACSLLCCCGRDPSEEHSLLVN
#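 TRPML1-DL cells, Tet-induced overnight (~16 h, 37 °C) at 1,500 cells/well, were loaded with Ca8 no-wash dye plus quencher for 45-90 min at room temperature. Compounds were pinned during FDSS kinetic reading; agonist 54-4 at EC80 (4 uM final) then added.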
# * = called active by the depositor; ? = inconclusive; nt = not tested or not shown; & = joins results of further samples; [ ] = another dose, or the depositor's remark.
# Sequence of screens: TRPML1 blocker	gsp antagonist	ClpP mod	TRPV1 potentiator	gsp agonist	Sfp inh	Menin-MLL FL inh
COc1ccc(NC(=O)COC(=O)COc2cccc(Br)c2)cc1OC
    17	8%	nt	-11	-7%[15.4 µM]	21%	-8.5
Fc1cccc(CCN2CCNC[C@@H]2Cc2ccccc2)c1
    -21	13%	0.8%	nt	27%	nt	nt
O=C(CSc1ncc(C(F)(F)F)cc1Cl)NCC1CCCO1 (centres undefined)
    3	8%	-0.9%	-8	-2%	17%	6.8
Cc1cc(-c2nnc(SCC(=O)c3ccc(F)cc3)o2)no1
    -9	-3%	nt	-3	10%[15.4 µM]	3%	4.9
O=C(Nn1cnnc1)c1ccccc1-c1ccccc1
    1	10%	-0.5%	-11	-12%	5%	0.0
COC(=O)C12CCC3(SCCS3)C(C(=O)OC)(CCC13SCCS3)C2
    -4	8%	-23%	-1	0%[15.4 µM]	13%	2.5
CCCCOC(=O)Nc1ccc(S(=O)(=O)Nc2nc(C)cc(C)n2)cc1
    0	-3%	-0.7%	1	-83%[inhibitor]	13%	-0.8
O=C(O)C1Nc2c(C(F)(F)F)ccc(Cl)c2C2C=CCC12 (centres undefined)
    6	-14%	-1.9%	12	-7%	?	?
O=C(COC(=O)Cc1ccc(Cl)cc1)Nc1ccccc1F
    0	nt	nt	-20	-14%[15.4 µM]	17%	7.9
O=c1ccc(=O)n(-c2ccccc2)[nH]1
    6	1%	0.7%	6	-18%[15.4 µM]	50µM*	-1.4
COc1ccc(NC(=O)Cc2ccc(C)c(C)c2)cc1S(=O)(=O)N1CCCCC1
    5	-27%	0.3%	nt	-18%	nt	nt
CC(=O)Nc1cccc(Oc2nc(C)cc(C)c2C#N)c1
    6	-2%	0.7%	8	-27%	16%	1.7
Cc1nc(SCC(=O)Nc2c(C)n(C)n(-c3ccccc3)c2=O)c2cnn(-c3ccccc3)c2n1
    -10	-15%	0.5%	nt	-4%	nt	nt
O=C(CCn1cccc1)NCCc1ccc(Cl)cc1
    -2	0%	-1.0%	-17	-4%	6%	3.0
O=C(O)c1ccc(N2CCCCC2)cc1O
    12	2%	-9.7%	-2	15%	-3%	4.5
CCOC(=O)/C=c1\s/c(=C\c2c(OC)ccc3ccccc23)c(=O)n1CC(=O)NCC1CCCO1 (centres undefined)
    -9	9%	-1.9%	13	-5%	15%	?
N#CCn1c(C2CCCCC2)nc2ccccc2c1=O
    -12	8%	-2.8%	nt	-21%	14%	3.4
O=C(CCc1ccccc1)NC1CCS(=O)(=O)C1 (centres undefined)
    3	9%	-0.3%	-5	14%[15.4 µM]	nt	nt
Cc1ccc(S(=O)(=O)NCCn2nc(C)cc2C)cc1
    9	6%	nt	12	-29%	3%	-1.2
Cc1ccc(N2C(=O)C3CCC(C)(C2=O)C3(C)C)cc1 (centres undefined)
    6	9%	?	5	4%[15.4 µM]	8%	6.0
Oc1ccc(C2C=C(c3ccc(F)cc3)Nc3ncnn32)cc1 (centres undefined)
    -1	1%	-19%	-11	3%	-14%	?
COc1cccc(C(=O)NCC(=O)N/N=C(\C)Cc2ccccc2)c1
    3	1%	-0.2%	?	19%	19%	-0.7
Cc1ccc2oc(-c3ccc(NC(=O)CC(C)C)cc3)nc2c1
    -3	10%	8.9µM*	18	5%	16%	1.4
CNC(=O)CCC(=O)Nc1ccc(C(=O)OC)cc1
    32	12%	0.1%	3	-3%	17%	-1.6
COc1cc(-c2cc(C(=O)Nc3cccc(S(=O)(=O)N(C)C)c3)c3ccccc3n2)cc(OC)c1OC
    10	-9%	nt	8	-16%[15.4 µM]	14%	-12
COC(=O)C(NC(C)=O)(Nc1nc2c(C)cc(C)cc2s1)C(F)(F)F (centres undefined)
    -14	1%	1.6%	-4	2%	-6%	-0.7
COc1cc(/C=C(/C(=O)O)c2ccc(-c3ccccc3)cc2)cc(OC)c1OC
    3	?	nt	?	9%	9%	7.2
CCNC(=S)NNC(=O)c1csc2c1CCCC2
    11	-4%	-2.0%	5	-1%	22%	-0.7
CCCC(=Nc1ccccc1OC)C1=C(O)CC(c2ccccc2)CC1=O (centres undefined)
    -12	?	1.3%	9	-8%	-7%	-1.4
CN(C)c1cccc(C(=O)NNC(=S)NC2CCCC2)c1
    3	14%	4.5%	2	?	13%	0.3

# Single records, from the list above:
# Cc1nc(SCC(=O)Nc2c(C)n(C)n(-c3ccccc3)c2=O)c2cnn(-c3ccccc3)c2n1 as listed: TRPML1 blocker: -10; gsp antagonist: -15%; ClpP mod: 0.5%; TRPV1 potentiator: nt; gsp agonist: -4%; Sfp inh: nt; Menin-MLL FL inh: nt
# CCOC(=O)/C=c1\s/c(=C\c2c(OC)ccc3ccccc23)c(=O)n1CC(=O)NCC1CCCO1 (centres undefined) as listed: TRPML1 blocker: -9; gsp antagonist: 9%; ClpP mod: -1.9%; TRPV1 potentiator: 13; gsp agonist: -5%; Sfp inh: 15%; Menin-MLL FL inh: ?
# CC(=O)Nc1cccc(Oc2nc(C)cc(C)c2C#N)c1 as listed: TRPML1 blocker: 6; gsp antagonist: -2%; ClpP mod: 0.7%; TRPV1 potentiator: 8; gsp agonist: -27%; Sfp inh: 16%; Menin-MLL FL inh: 1.7

# The list continues:
# Sequence of screens: TRPML1 blocker	gsp antagonist	ClpP mod	TRPV1 potentiator	gsp agonist	Sfp inh	Menin-MLL FL inh
c1ccc(SCCCCN2CCOCC2)cc1
    4	9%	-1.0%	2	-2%	5%	-3.6
Cc1cnc(NC(=O)CN2CCN(c3ccccn3)CC2)s1
    3	4%	-0.7%&-6.4%	-2	0%	-9%	11
CN(Cc1cccc(F)c1)C(=O)C1CC(=O)N(Cc2ccco2)C1 (centres undefined)
    -9	nt	-0.5%	nt	10%	nt	nt
CC1(C)Cc2noc(N)c2C(C)(C)N1OC(=O)c1scc2c1OCCO2
    30	14%	-1.2%	5	-27%	-2%	-1.5
O=C(O)c1cc(N2C(=O)CCC2=O)ccc1NCc1cccnc1
    -2	11%	3.4%	0	?	8%	-1.3
CCOc1[nH]n(-c2ccccc2)c(=O)c1C=Nc1ccc(OC)cc1
    6	-31%	0.6%	-8	-33%[inhibitor]	7%	-5.5
CCCC(=O)Nc1nc(-c2ccc3c(c2)CCN3S(C)(=O)=O)cs1
    8	-19%	0.6%	14	0%	-14%	5.7
O=C(OCc1ccc([N+](=O)[O-])cc1)c1ccc2ccccc2n1
    0	-3%	nt	-24	-20%[15.4 µM]	0%	4.3
O=C(Nc1cccc(-c2cccc(F)c2)c1)C1CCN(C2CCOCC2)CC1
    7	3%	1.6%	-3	-40%[inhibitor]	1%	-2.8
COC(CNC(=O)CCCn1nnnc1CN1CCOCC1)c1cccs1 (centres undefined)
    -23	-22%	2.2%	-11	-26%	5%	0.2
O=C(NCc1cccnc1)c1cccc(C(F)(F)F)c1
    3	13%	1.3%	13	-1%	4%	-3.3
COCC(=O)Nc1cccc(-c2ccc3nncn3n2)c1
    -6	7%	-3.9%	-4	5%	19%	-1.6
CCN(c1ccccc1)S(=O)(=O)c1ccc(C(=O)Nc2ncccc2O)cc1
    -14	-13%	2.2%	-18	-68%[inhibitor]	15%	nt
N#CC(C#SN)=C1CCCCC1
    3	-6%	-0.8%	0	-25%	?	-1.9
Cc1ccc(S(=O)(=O)CC(=O)NC2CC2)cc1
    3	4%	1.7%	3	-6%	29%	4.3
O=C(Cn1[nH]c(=O)c2ccccc2c1=O)Nc1cccc(-c2nnc3n2CCCCC3)c1
    7	7%	-5.2%	-6	15%	4%	1.9
COC(=O)c1sccc1NC(=O)CN(C)NS(=O)(=O)c1ccc(Cl)cc1
    11	8%	-2.0%	14	-8%	16%	2.7
Cc1ccccc1C(=O)N1CCC(C(=O)O)CC1
    -1	0%	-0.7%	15	-21%	21%	1.3
CCCc1nc2ccc(NC(C)=O)cc2c(=O)n1Cc1cccc(Cl)c1
    -2	-10%	nt	-11	-36%[inhibitor]	20%	3.0
S=C(NCc1ccco1)Nc1cc(-c2ccccc2)[nH]n1
    2	0%	nt	-2	16%	1%	-1.6
COC(=O)C(C(=O)OC)c1ccc(-n2cccc2)cc1
    0	5%	nt	-31	-4%	22%	0.1
CN(CCCC[C@H](CNCc1ccc(-c2ccccc2)cc1)N1C[C@H](c2ccccc2)N(CCc2ccc(Cl)c(Cl)c2)C(=O)C1=O)Cc1ccc(-c2ccccc2)cc1
    nt	nt	nt	5	nt	22µM*	1.8
CCOC(=O)N1CC=C2C(C#N)=C(N)C(C#N)(C#N)[C@H](c3ccccc3OCC)[C@H]2C1
    20	-6%	-17%	-17	-8%	15%	4.6
COc1ccc(NC(=O)N(C)[C@H]2C[C@H]3c4[nH]c5ccc(-c6ccc(OC)cc6)cc5c4CCN3C(=O)[C@H]2[C@H](C)O)cc1
    -12	nt	4.6%	nt	9%	nt	nt

# Arranged by the number under gsp agonist (ascending): three from the list above
canonical_smiles	gsp agonist
COC(=O)c1sccc1NC(=O)CN(C)NS(=O)(=O)c1ccc(Cl)cc1	-8%
c1ccc(SCCCCN2CCOCC2)cc1	-2%
COCC(=O)Nc1cccc(-c2ccc3nncn3n2)c1	5%
